NPYLR7 ag = activates Aedes aegypti NPYLR7 receptor; HEK293T NPYLR7/Galpha15, GCaMP6s calcium fluorescence; activation, % at 10 µM; 270,000 compounds, 0.15% hits; AID 1259423; in the data active means activation above about 40%;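 further: 0% = vehicle and 100% = reference agonist at the receptor; some compounds past the cut are filed as inactive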
NPYLR7 ag max-min = further read-out of NPYLR7 ag, marked with its call; activation, %; measured here: Max-Min RFU normalised activation; some inactives read as strong as hits;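 span of the calcium signal over five minutes; 0% = vehicle and 100% = native peptide agonist; compound fluorescence can raise it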
An asterisk follows results filed as active.

#1 CCCN(CC(=O)Nc1cc(-c2ccccc2)nn1-c1ccc(F)cc1)C(=O)Nc1cc(OC)cc(OC)c1
#2 CCC/C=C/c1ccc2nc(C(C)O)[nH]c2c1 (stereo not drawn)
#3 CCOc1ncccc1CN1CCC(C(=O)NCc2ccccn2)CC1
#4 N#Cc1ccccc1NC(=O)C1=COCCO1
#5 Cc1ccc(SC2CCN(C(=O)c3cn(CCc4ccccc4)nn3)CC2)cc1

assay / entry,1,2,3,4,5
NPYLR7 ag,22,14,-6,17,20
NPYLR7 ag max-min,22,2,-13,12,14

#6 CCCCc1ccc(C(NCc2cc(=O)n(C)c(=O)n2C)C(C)C)cc1 (stereo not drawn)
#7 Cc1cccc(C)c1N1C(=O)c2ncccc2C1CCN1CCN(CC(=O)O)CC1 (stereo not drawn)
#8 Cc1csc(SCc2cc(=O)c(OC(=O)c3cc(Br)ccc3Cl)co2)n1
#9 Clc1ccccc1CNc1nc2c(-c3ccccc3)nnn2c2ccccc12
#10 COc1cccc(CN2CCCC3(CCN(C(=O)c4ccco4)C3)C2=O)c1 (stereo not drawn)

assay / entry,6,7,8,9,10
NPYLR7 ag,1,1,17,-4,3
NPYLR7 ag max-min,-2,11,8,-8,1

#11 CN1CC[C@H](N(Cc2ccccc2)C2COC2)C[C@H](O)C1
#12 CCOc1ccc(-c2nc(Cn3nnc(C(=O)Nc4ccc(OC)cc4)c3C)c(C)o2)cc1
#13 CCCn1cc(C(=O)NCc2cc(F)cc(F)c2)c(S(=O)(=O)N2CCC(C)CC2)n1
#14 Cc1nc2nc(N)nn2c(C)c1CC(=O)O
#15 CN(C)c1ccc(/C=N\NC(=O)CSc2nnc(-c3ccccc3)n2-c2ccccc2)cc1

assay / entry,11,12,13,14,15
NPYLR7 ag,3,6,17,-9,-12
NPYLR7 ag max-min,14,3,12,-10,-20

By substructure, the compounds so far containing a COOH group
#7 Cc1cccc(C)c1N1C(=O)c2ncccc2C1CCN1CCN(CC(=O)O)CC1 (stereo not drawn)
#14 Cc1nc2nc(N)nn2c(C)c1CC(=O)O

assay / entry,7,14
NPYLR7 ag,1,-9
NPYLR7 ag max-min,11,-10

Screen by screen, as entered above:
Entries 11–15 in NPYLR7 ag: 3, 6, 17, -9, -12

(next part)
#16 O=C(Nn1c(Cc2ccc(F)cc2)n[nH]c1=S)c1ccccn1
#17 Cc1ccc(C(O)CNC(=O)c2cccc(C)c2C)cc1 (stereo not drawn)
#18 O=C(NC(c1ccc(Cl)cc1)c1ccccn1)C1CCN(CCc2ccc3c(c2)OCO3)CC1 (stereo not drawn)
#19 O=C(NCc1ccc(F)cc1)N1CCCCC1CCn1cccn1 (stereo not drawn)
#20 Cc1cccn2c(CNC(=O)c3ccc(-c4ncn[nH]4)cc3)cnc12

assay / entry,16,17,18,19,20
NPYLR7 ag,5,4,31,7,27
NPYLR7 ag max-min,2,4,27,5,14

A draw from above in order of length of the SMILES, ascending:
#17 Cc1ccc(C(O)CNC(=O)c2cccc(C)c2C)cc1 (stereo not drawn)
#19 O=C(NCc1ccc(F)cc1)N1CCCCC1CCn1cccn1 (stereo not drawn)
#20 Cc1cccn2c(CNC(=O)c3ccc(-c4ncn[nH]4)cc3)cnc12

assay / entry,17,19,20
NPYLR7 ag,4,7,27
NPYLR7 ag max-min,4,5,14

The results go on:
#21 Cc1ccc(-c2cc(C(=O)N3CCN(Cc4ccc5c(c4)OCO5)CC3)n(-c3ccccc3)n2)cc1C
#22 CC(C)(C)CC(=O)N(Cc1cccc(F)c1)CC1CC(c2ccc(F)cc2)=NO1 (stereo not drawn)
#23 CCCc1nnc(NC(=O)Nc2ccc([N+](=O)[O-])cc2)s1
#24 CCC(C)c1ccc(S(=O)(=O)N(C2CCCCC2)C2CCS(=O)(=O)C2)cc1 (stereo not drawn)
#25 Cc1sc2ncnc(SC(C)C(N)=O)c2c1C (stereo not drawn)

assay / entry,21,22,23,24,25
NPYLR7 ag,-12,20,-9,11,0
NPYLR7 ag max-min,-10,25,-10,7,0

#26 CC(C)(C)OC(=O)Nc1ccc(C(=O)N2CC[C@@H](O)C2)c(O)c1
#27 CCOc1ccc(-c2n[nH]c(=S)n2CC(=O)NC(C)(C)C)cc1
#28 Cc1ccc(-n2nc(-c3ccccc3)c3c2N(CC(=O)NCc2ccccn2)C(=O)CSC3c2cccc(Cl)c2)cc1 (stereo not drawn)
#29 CN(C)c1nnc(C(O)c2ccc(F)c(Cl)c2)s1 (stereo not drawn)
#30 CC(=O)Oc1ccc(N(C(C)=O)S(=O)(=O)c2ccccc2)cc1Br

assay / entry,26,27,28,29,30
NPYLR7 ag,0,3,22,28,-1
NPYLR7 ag max-min,0,-3,27,24,-2

#31 CCCCN(c1ccc(C)c(C)c1)c1nc2ccccc2[nH]c1=O
#32 O=C1Nc2ccccc2C1=NN=Cc1ccc(OC(F)F)cc1
#33 CC(C)NC(=O)c1cc(C2CCCCN2S(=O)(=O)c2ccc(C#N)cc2)on1 (stereo not drawn)
#34 CC1CN(S(=O)(=O)N2CCN(Cc3ccc(C(F)(F)F)cc3)CC2)CC(C)O1 (stereo not drawn)
#35 COc1cccc(-c2ccc(NC(=O)C3CCCN(Cc4cccc(C)n4)C3)cc2)c1 (stereo not drawn)

assay / entry,31,32,33,34,35
NPYLR7 ag,-3,0,3,-1,7
NPYLR7 ag max-min,-5,-2,0,-5,5

#36 CCOC(=O)c1sc2cccc(F)c2c1CSc1nncn1C
#37 O=c1[nH]c2ccccc2c(=O)n1CCCN1CCN(c2ccccc2)CC1
#38 O=C(Nc1ccc(Cl)cc1Cl)NC(Cc1ccccc1)C(=O)Nc1nnc(-c2ccc3c(c2)OCO3)s1 (stereo not drawn)
#39 Cc1ccc(OCCN2CCC2(C)C(=O)NCCc2c[nH]c3ccccc23)cc1 (stereo not drawn)
#40 CCCn1c(N)c(C(=O)CSc2nnc(Cc3csc(C)n3)o2)c(=O)[nH]c1=O

assay / entry,36,37,38,39,40
NPYLR7 ag,15,-11,-2,4,1
NPYLR7 ag max-min,4,-17,8,-1,0

#41 Cc1cc(C)n(-c2n[nH]c(=S)n2N=Cc2ccc(Br)cc2)n1
#42 CCCCCCNS(=O)(=O)c1ccc(Br)s1
#43 O=S(=O)(c1cccc(Cl)c1F)N1CCN(C(c2ccc(F)cc2)c2ccc(F)cc2)CC1
#44 O=C(c1cn(CCNc2ncccn2)nn1)N1CCSCC1
#45 COc1ccc(NC(=O)C2(S(=O)(=O)c3cc(C)ccc3C)CCCC2)c(OC)c1

assay / entry,41,42,43,44,45
NPYLR7 ag,7,-3,24,2,3
NPYLR7 ag max-min,5,-2,15,-1,1

#46 CCCNC(=O)C(C)Nc1cc(Cl)c(OC)cc1OC (stereo not drawn)
#47 OC1COC2C[C@@H](Nc3ccccn3)O[C@H]12 (stereo partly drawn)
#48 CCOc1ccccc1N1CCN(S(=O)(=O)c2cc(OC)c(Br)cc2OC)CC1
#49 Nc1nc(N2CCOCC2)cc(N2CCN(CCc3ccccc3)CC2)n1
#50 CCCCCCCC(=O)N1CCSC1c1cccnc1 (stereo not drawn)

assay / entry,46,47,48,49,50
NPYLR7 ag,6,1,3,0,4
NPYLR7 ag max-min,4,-2,4,-2,11

For convenience, 3 of the compounds above:
#45 COc1ccc(NC(=O)C2(S(=O)(=O)c3cc(C)ccc3C)CCCC2)c(OC)c1
#46 CCCNC(=O)C(C)Nc1cc(Cl)c(OC)cc1OC (stereo not drawn)
#47 OC1COC2C[C@@H](Nc3ccccn3)O[C@H]12 (stereo partly drawn)

assay / entry,45,46,47
NPYLR7 ag,3,6,1
NPYLR7 ag max-min,1,4,-2

(more compounds)
#51 CCc1cc(N2CCN(c3ccccc3Cl)CC2)nc(SCc2ccc(C(=O)NCCc3ccccn3)cc2)n1
#52 O=C(CC1C=CS(=O)(=O)C1)NC(c1ccccc1)c1ccccc1 (stereo not drawn)
#53 CO[C@@H]1CC[C@H]2C[C@@H]1[C@@H](Oc1ccccn1)CN2C(=O)Cc1cccs1
#54 CCNC(=O)OC1CCN(C(=O)c2ccno2)CC(=O)N(C)c2ccccc21 (stereo not drawn)
#55 C/C=C\Cn1c(C(=O)NCCc2ccccc2)cc2ccsc21

assay / entry,51,52,53,54,55
NPYLR7 ag,3,0,29,7,14
NPYLR7 ag max-min,4,-3,39,18,21

#56 Nc1nc(CNC(=O)c2ccc3cccc(F)c3n2)cs1
#57 O=S(=O)(N1CCOCC1)N(CCc1ccccc1)C1CCCC1
#58 COCc1nc2cc(NC(=O)Cc3ccccc3)cc(C(=O)N(C)CC3CCCCO3)c2n1C (stereo not drawn)
#59 O=C(NCC(F)(F)F)C1CCCN1C(=O)NCc1ccc2c(c1)OCCO2 (stereo not drawn)
#60 N#CCCN(CCC#N)Cn1nc(-c2ccccc2F)oc1=S
#61 CC(=O)C(Sc1ccc([N+](=O)[O-])cc1)=C(C)O

assay / entry,56,57,58,59,60,61
NPYLR7 ag,1,0,0,12,0,3
NPYLR7 ag max-min,1,-1,-5,10,-2,-1

A portion of the library; the hit share may differ from the screen's.
